GIV-Gai inh: blocks GIV peptide binding to rat Galpha-i3. P08753. Galpha-i3/FITC-GIV peptide fluorescence polarization, 90 min; active compounds read low; scaled: aluminum fluoride 0%, vehicle 100%. percent of control (FP), % (concentration not given with the values). 210,000 tested, 0.42% active. AID 1224905;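 active means replicate mean at 85% of control or lower, very high polarization wells dropped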;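 further: wells of about 15 µL received 100 nL stock; the first replicate is given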
Target sequence (P08753 whole entry, looked up): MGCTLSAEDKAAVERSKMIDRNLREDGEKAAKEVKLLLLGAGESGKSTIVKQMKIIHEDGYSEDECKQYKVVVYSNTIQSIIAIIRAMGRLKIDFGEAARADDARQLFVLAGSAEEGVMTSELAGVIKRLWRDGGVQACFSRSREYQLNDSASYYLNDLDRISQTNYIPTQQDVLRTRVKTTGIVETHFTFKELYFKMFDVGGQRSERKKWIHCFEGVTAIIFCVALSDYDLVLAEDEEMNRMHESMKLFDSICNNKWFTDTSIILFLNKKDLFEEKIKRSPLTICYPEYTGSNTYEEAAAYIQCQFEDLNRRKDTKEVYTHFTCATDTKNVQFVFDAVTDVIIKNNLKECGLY
HCMV NEC inh: inhibitors of HCMV UL50-UL53 nuclear egress complex interaction | HTRF UL50-UL53 interaction, normalized percent inhibition | inhibition, % (test concentration not listed) | 190,000 tested, 0.15% active | AID 1918969;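 active means both replicates at 50% or more, plus weaker picks with an unusually low signal ratio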;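 further: stock transfer was 100 nL into about 20 µL; 0% = negative control wells and 100% = wells with untagged competitor protein; inactives centre near -12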
Sa growth inh: inhibitors of Staphylococcus aureus growth at 42 °C. S. aureus RN4220 growth, OD600, 20 h; active compounds read low. relative growth, % (concentration not given with the values). 170,000 tested, 0.53% active. AID 720641;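 active means growth at 42 °C up to 50% and 20 or more points under that at 30 °C, or under 10% at both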;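 further: 300 nL library stock went into each well; scaled to the means of positive and negative controls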
Sa growth inh second temp: second read-out of Sa growth inh, no call of its own (marks repeat the call); relative growth, %; measured here: growth at 30 °C;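 optical density after 20 h as mean of two plates; 100% = untreated growth and lower means inhibition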
* = called active by the depositor; · = no result given; & = joins results of further samples.

molecule,HCMV NEC inh,Sa growth inh second temp,Sa growth inh,GIV-Gai inh
CCCOC(=O)COc1ccc2c(=O)c(-c3ccccc3OC)coc2c1,·,87,93,103
CCOC(=O)c1nn(-c2ccccc2)c(=O)cc1NC(C)C,-67,·,·,99
CC(=O)Oc1c(S(=O)(=O)c2ccccc2)c(C)nn1-c1ccccc1,·,83,113,101
CCn1c(SCC(N)=O)nnc1-c1cccs1,-36,82,80,·
CS(=O)(=O)N(CC(=O)N1CCN(Cc2ccc3c(c2)OCO3)CC1)Cc1ccccc1,0,67,98,98
O=C(O)c1cc2c(nc3ccccn32)s1,-20,70,97,·
C(=N\N1CCN(C(c2ccccc2)c2ccccc2)CC1)/c1cccnc1,-10,97,91,·
OCCN/N=C/c1ccc(Br)cc1,-26,91,118,·
CCOC(=O)c1cc(-c2ccc(OC)c(S(=O)(=O)Nc3ccc(OC)cc3OC)c2)on1,-11,88,75,114&106
CNc1nc(N2CCOCC2)nc(N(c2ccccc2)c2ccccc2)n1,-5,85,104,·
CCOC(=O)N1CCN(Cc2nc3cc(NC(=O)CC)ccc3n2C(C)C)CC1,5,85,105,101
CCOC(=O)C1CCN(C(=O)c2ccc(CC)cc2)CC1,-25,90,95,102
COc1ccc(-c2nc(Nc3ccc(OC)cc3OC)c3ccccc3n2)cc1,-8,·,·,111
O=C1c2ccccc2C(=O)N1CN(C(=O)c1ccccc1)c1ccc(Br)cc1,·,96,113,96
N#Cc1c(NC(=O)CSc2ncnc3c2cnn3-c2ccccc2)sc2c1CCC2,-15,82,91,·
Cc1cc(C)c(S(=O)(=O)c2ccc(Cl)cc2)c(=O)[nH]1,-9,·,·,104
CCOC(=O)C1=C(C)N=c2s/c(=C\c3ccc(Br)o3)c(=O)n2C1c1ccc(OC)c(OC)c1 (stereo not given),-22,·,·,110
CC1Cc2ccccc2N1S(=O)(=O)c1nnc(NC(=O)c2ccccc2Br)s1 (stereo not given),2,25,81,106
CCC(C(=O)NCCCOC)N1CCN(Cc2ccc(F)cc2)C(=O)C1=O (stereo not given),-41,·,·,109
O=C(CCCc1ccccc1)Nc1cccnc1,-8,85,79,103

5 entries picked at random from the list so far, as already listed:
molecule,HCMV NEC inh,Sa growth inh second temp,Sa growth inh,GIV-Gai inh
COc1ccc(-c2nc(Nc3ccc(OC)cc3OC)c3ccccc3n2)cc1,-8,·,·,111
C(=N\N1CCN(C(c2ccccc2)c2ccccc2)CC1)/c1cccnc1,-10,97,91,·
O=C(O)c1cc2c(nc3ccccn32)s1,-20,70,97,·
Cc1cc(C)c(S(=O)(=O)c2ccc(Cl)cc2)c(=O)[nH]1,-9,·,·,104
CCCOC(=O)COc1ccc2c(=O)c(-c3ccccc3OC)coc2c1,·,87,93,103

Next part:
molecule,HCMV NEC inh,Sa growth inh second temp,Sa growth inh,GIV-Gai inh
COc1ccc(CCNC(=S)N2CCCC2)cc1OC,-10,80,89,99
CCOC(=O)c1[nH]c2cc(OC)c(OC)cc2c1N1C(=O)CCC1=O,·,91,92,99
O=C(CSc1nncn1-c1ccccc1)NCc1ccccc1,-25,105,97,104
COc1ccc(NC(=O)c2cc(-c3ccc(OC)cc3)nc3ccccc23)cc1,-10,·,·,102
C1=C(CCNc2nnc(Cc3cccnc3)c3ccccc23)CCCC1,-1&-10,67,91,103&103
Oc1ccccc1-c1cc(-c2ccccc2)nn1Cc1ccc(Cl)cc1,-6,76,63,·
Cc1cccc(Nc2nnc(-c3ccc(C)c(S(=O)(=O)NCC4CCCO4)c3)c3ccccc23)c1 (stereo not given),-35,86,115,109
CC(C)(C)OC(=O)N1CCC(c2c(C(=O)N3CCCC3)cnn2-c2ccccc2)CC1,-44,84,99,104
COCCn1c(=O)[nH]c2cc(C(=O)NCc3ccccc3Cl)ccc2c1=O,-3,99,106,105
CCc1nnc(SCC(=O)N2CCNC(=O)C2CC(=O)OC)n1N (stereo not given),-6,90,83,·
CC(=O)N1CCc2cc(N)ccc21,12,89,91,97
CCn1nc2c3ccccc3n(Cc3ccc(Cl)cc3)cc-2c1=O,-7,·,·,95
Cn1c(=O)c2c(-c3ccccc3)n3c4ccccc4nc(-c4ccccc4)c3c2n(C)c1=O,-33,94,97,99
CCOC(=O)C1=C(N)OC2=C(C(=O)CC(c3ccccc3)C2)C1c1cc([N+](=O)[O-])ccc1Cl (stereo not given),-10,·,·,107
CCOC(=O)c1cnc2cc(C(F)(F)F)ccc2c1N1CCN(c2cccc(Cl)c2)CC1,24,97,96,101
Cc1nnc2ccc(N3CCC(C(=O)N4CCN(c5ccccc5)CC4)CC3)nn12,-30,·,·,101
CC(=O)NC1=NC(=O)/C(=C\c2ccc(C)cc2)S1,-23,91,91,·
CC1CCc2c(sc(NC(=O)C3c4ccccc4Oc4ccccc43)c2C(=O)OC(C)C)C1 (stereo not given),-14,90,101,103
CCC1c2[nH]c3ccccc3c2CCN1C(=O)Nc1cccc(C)c1 (stereo not given),-20&3,82,100,101&110
COc1ccc(CNC(=O)Cn2ccn3nc(-c4ccc5c(c4)OCO5)cc3c2=O)cc1,-11,·,·,104
O=c1cc(-c2ccncc2)[nH]c2nc3ccccc3n12,-26,·,·,99
CCCCN1CC(C(=O)NCCc2ccccc2)CC1=O (stereo not given),5,84,80,104
O=S(=O)(NC(c1nnc(-c2ccccc2)o1)c1ccccc1Cl)c1ccc(F)cc1 (stereo not given),6,·,·,102
O=C(COCc1cc(-c2ccc3c(c2)OCO3)on1)N1CCN(c2ccccc2)CC1,·,82,83,99
COc1cccc(NC(=O)c2c(O)c3cccc4c3n(c2=O)CC4)c1,0,94,110,102
c1ccc(CNn2cn[n+](Cc3ccccc3)c2)cc1,8,95,93,·
CCC(Sc1nc2ccccc2o1)C(=O)O (stereo not given),·,81,112,103
C/C(=N/O)c1nonc1/C(C)=N\O,-12,100,113,101
Brc1ccc(Cn2c3ccccc3c3nc4cc5ccccc5cc4nc32)cc1,-7,·,·,103
CCCC1CC(C)(c2csc(NCC)n2)OC1=O (stereo not given),0,80,100,99
CCCCNC(=O)c1cccc(N2CCCC2=O)c1,-27,90,89,108
O=C(NC1CCCCC1)c1c[nH]c2ccccc2c1=O,-15,86,98,·
CC(=O)Nc1ccc(S(=O)(=O)N2CCC(c3c(C)n(Cc4ccc(F)cc4)c4ccccc34)CC2)cc1,-32,·,·,106
COc1ccc(C(=O)N2CCC(C(=O)Nc3ccc4c(c3)OCCO4)CC2)cc1,-7,89,97,103
CCOC(=O)c1c(C)n(C)c2ccc(OC(=O)NC3(C(F)(F)F)Oc4ccc(Cl)cc4O3)cc12 (stereo not given),-12,·,·,105
CCOc1ccc(/C(O)=C2\C(=O)C(=O)N(Cc3cccnc3)C2c2ccc(N(C)C)cc2)c(C)c1 (stereo not given),-45,87,88,102
CC1=C(c2ccc(C)cc2)S(=O)(=O)N=C1N1CCN(c2ccccc2)CC1,-21,96,117,93
COc1ccc(C(CC(=O)NC2CC2)n2cccc2)cc1 (stereo not given),5,103,101,108
Cc1ccc(NC(=O)C(C)Sc2nc(=O)cc(N)n2CCc2ccccc2)cc1 (stereo not given),1,94,100,111
COc1cccc(NC(=O)N(Cc2cc3ccc(C)cc3n3nnnc23)CC2CCCO2)c1 (stereo not given),17,117,98,102
Cc1ccc(-c2nnc3ccc(SCC(=O)Nc4nnc(C)s4)nn23)cc1,-28,·,·,101
O=C(Cc1ccc(Cl)cc1)c1ccc(Cl)cc1,-19,81,77,·
CCOc1cc(C(=O)Nc2nnc3n2CCS3)cc(OCC)c1OCC,·,89,110,101
CCc1ccc(NC(=O)Cn2nc(-c3ccc(OC)cc3)ccc2=O)cc1,·,72,90,100
O=C(Cn1cccc1)N1CCN(C(c2ccccc2)c2ccccc2)CC1,·,89,92,99
CCCCn1c(NCc2ccc(OC)cc2O)nc2ccccc21,-21,95,101,102
Cc1ccc(Nc2nc(C)nc3c2oc2ccccc23)cc1,5,84,73,·
Cc1cccc(C)c1NC(=O)CCC(=O)O,-13,103,95,100
Cc1nc(-c2cccnc2)nc(N(C)C)c1Cl,-4,82,88,101
CCCCOc1ccc(S(=O)(=O)n2nc(C)c(S(=O)(=O)N3CCC(C)CC3)c2C)cc1,·,85,73,107
Cc1ccc(OCC(=O)Nc2c(Cl)ccc3nsnc23)cc1C,-26,91,78,108
Cc1cccc(N(C)S(=O)(=O)c2cnc[nH]2)c1,-1,88,105,97
O=c1nc2c(-c3cccc(C(F)(F)F)c3)n[nH]n2c2ccccc12,·,82,95,107
CCOC(=O)C1=C(CC)Nc2ccccc2N=C1NC(=O)C1Cc2ccccc2CN1S(=O)(=O)CC (stereo not given),-2,93,95,·
CC1CCC(NC(=O)CN2C(=O)CCc3cc(S(=O)(=O)N4CCCCC4C)ccc32)CC1 (stereo not given),-3,·,·,111
CCOc1ccc(NC(=O)C(C)Sc2nc3ncccc3o2)cc1 (stereo not given),·,93,88,103
CONS(=O)(=O)c1ccc(OCC(=O)OC)cc1,-45,100,102,100
Cc1cccc(N=C(N2CCOCC2)P(=O)(N2CCOCC2)N2CCOCC2)c1,-12,94,92,·
O=C(CSc1nc2c([nH]c3ccccc32)c(=O)n1-c1cccc(Cl)c1)c1ccccc1,·,86,106,96
Cc1ccc(CS(=O)(=O)c2ccccc2-c2nnc(-c3ccc(Cl)cc3)o2)cc1,12,·,·,107

Next section
molecule,HCMV NEC inh,Sa growth inh second temp,Sa growth inh,GIV-Gai inh
CN(CC(=O)OC1CCOC1=O)S(=O)(=O)c1ccc(Cl)cc1 (stereo not given),7,99,88,·
CN(C)S(=O)(=O)N1CCCc2ccccc21,-19,88,91,96
Cc1ccc(N2CCN(C(=O)CCS(=O)(=O)c3cc4c(cc3Cl)NC(=O)CO4)CC2)c(C)c1,·,96,107,106
CCOc1ccc(-c2cc(OC(=O)c3ccc(F)cc3)c3c(C)oc(C)c3c(=O)c2)cc1,-82,90,95,101
CC1CCCN(CC(=O)c2ccc(Cl)s2)C1 (stereo not given),-38,90,79,·
Cc1cc2n(n1)CCCN2C(=O)CCC(=O)NCc1ccccc1,4,·,·,113
NS(=O)(=O)c1ccc(CCNc2ccc3nnc(-c4ccccc4)n3n2)cc1,10,100,102,109
CCOc1ccc2c(c1)-c1c(ss/c1=N\NC(=O)c1cccnc1)C(C)(C)N2,-56,62,85,103
COc1ccc(-c2csc(-c3nc(-c4ccccc4)cs3)n2)cc1,-6,·,·,107
COc1ccc(OCc2nc3ccccc3n2C(C)c2ccccc2)cc1 (stereo not given),-26,65,83,104
CCn1nccc1C(=O)Nc1ccc(C)c(C)c1,1,101,97,102
COCCNC(=O)CSc1nc(-c2ccccc2)[nH]c1-c1ccc(OC)cc1,-4,88,103,98
CC(C)n1c(-c2ccccc2)nc2ccccc21,·,83,65,108
Cc1cc(N2CCn3c(nc4ccccc43)C2)ccc1NS(=O)(=O)c1ccc(Cl)cc1,-39,·,·,108
Cc1ccc(C(=O)Nc2cccc(/C=N/N3CCOCC3)c2)cc1,-32,96,91,·
CCn1c(=O)oc2cc(NC(=O)Nc3ccc(C)c(Cl)c3)ccc21,21,·,·,101
O=C(CN(C(=O)Cn1nnc(-c2ccc(F)cc2)n1)c1ccccc1C(F)(F)F)NCc1ccco1,11,72,92,105
O=C(C1CCN(c2nn3cc(-c4ccc(F)cc4)nc3s2)CC1)N1CCCC1,0,·,·,104
COc1ccc(C2CCCN2S(=O)(=O)c2cc(OC)ccc2OC)cc1 (stereo not given),-37,·,·,105
CCOc1ccc(N2C(=O)NC(=O)/C(=C\c3cc(Br)c(N4CCOCC4)o3)C2=O)cc1,-12,·,·,114
Fc1ccc(Oc2ncnc3sccc23)c(Cl)c1,-35,85,127,·
COc1ccc(C2C(C#N)=C(N)Oc3cc(C)n(CCc4ccc(OC)c(OC)c4)c(=O)c32)cc1 (stereo not given),·,81,99,101
CCCOc1ccc2cc(C(=O)c3ccccc3)c(=N)oc2c1,14,92,76,·
CCn1c(CCNC(=O)C2CCCCC2)nc2ccccc21,·,84,94,103
CCOC(=O)Cn1nc2n(c1=O)-c1ccccc1SC2,-7,89,99,101
COc1cc2cc(CNc3ccc(C)cc3)c(=O)n(CC(=O)Nc3ccc(C(C)C)cc3)c2cc1OC,·,100,83,103
CCOC(=O)C1=C(C)Nc2ccccc2N=C1NC(=O)c1oc2ccccc2c1COC,-17,96,96,·
COc1ccc(OC(=O)/C=C/c2sc3ccccc3c2C)cc1,-4,84,105,103
O=C(CCn1c(=S)oc2ccccc21)N1CCn2c(nc3ccccc32)C1,·,86,91,96

Compound activity deposited in PubChem by ICCB-Longwood Screening Facility, Harvard Medical School.
